Bioassay records deposited in PubChem by National Center for Advancing Translational Sciences (NCATS).
ClpP mod: qHTS Assay for Activators of ClpP; Potency, µM (series often up to 57.5 µM), for the others: top-dose activity change, negative = active; purified B. subtilis ClpP, FRET peptide cleavage, 20 min; hit rate 1.9% among 340,000; ATP-dependent Clp protease proteolytic subunit (Bacillus subtilis (strain 168)), P80244; AID 651965, 2013; active = well fitted falling curve with a large enough effect; inconclusive = small, poorly fitted or top-dose-only effect; inactive = no such curve, though single readings can be large or run the other way; also: potency is read from the fitted curve at half-maximal effect; the source files actives as falling curves though it sought activators and does not explain the sign; nearly all actives have a fitted effect of over 65% in size; many hits overshoot -100%
Target sequence (P80244 whole entry, looked up): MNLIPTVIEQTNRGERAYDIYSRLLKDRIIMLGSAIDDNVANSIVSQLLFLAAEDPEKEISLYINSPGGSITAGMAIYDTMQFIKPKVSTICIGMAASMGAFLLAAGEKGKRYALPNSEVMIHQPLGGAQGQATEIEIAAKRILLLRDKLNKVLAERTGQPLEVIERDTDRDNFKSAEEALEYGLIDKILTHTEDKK
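Buffer: 100 mM Tris/HCl pH8, 100 mM KCl, 0.05% low protease BSA, 2.5% glycerol, 0.01% Tween-20. ClpP 10 microg/mL final; 20 min RT; delta FRET normalized to ADEP and DMSO controls.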
Sfp inh: blocks B. subtilis Sfp PPTase activity. Biochemical Sfp PPTase activity, qHTS. hit rate 3.5% among 310,000. Q9F4F7. Potency, µM, without a hit: max response, negative = inhibition, hits mostly inhibitors; active = well fitted inhibition curve with a large enough effect; inconclusive = small, poorly fitted or top-dose-only effect, or another doubt; inactive = no such curve, though single readings can be large or run the other way;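 also: the enzyme is Sfp with the accession as filed and its product quenches rhodamine fluorescence; potency is read from the fitted curve at half-maximal effect; 0% = enzyme reaction without inhibitor and -100% = no enzyme wells; top concentration of the series not given in the record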
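Step 1, compound plus 15 nM Sfp-PPTase, 15 min, room temperature. Step 2, add rhodamine-CoA (5 uM) and BHQ-2-YbbR (12.5 uM). Step 3, read 525/598 nm fluorescence at 0 and 30 min.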
Menin MLL FP FL: displaces fluorescein MLL peptide from human menin. Fluorescence polarization, fluorescein-MLL peptide displacement from menin. FP activity change, % at 61.4 µM. 290,000 tested, under 10 active; inconclusive = falling polarisation curve, or a change in total fluorescence; inactive = total fluorescence flat and polarisation flat or rising; no compound was filed as active; the % refers to the polarisation; negative = inhibition;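 also: % of control where 0% means no effect; inhibitors lower the polarisation; unlabelled MLL peptide was the positive control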
TRPML1 blocker: blocks the human TRPML1 channel. Q9GZU1. TRPML1-inducible cells, Ca2+ dye fluorescence, FDSS; active compounds read low; inhibition of EC80 agonist-evoked calcium signal. activity change, negative = inhibition, % (test concentration not listed). hit rate 0.02% among 390,000; in the data active means activity change below about -50%; inconclusive means about -30% to -50%; inactive means above about -30%;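 also: stimulus is agonist 54-4 at its EC80 concentration; % is scaled to controls: 0 for no effect and ±100 for the full control effect; compound concentration not given in the record; the text of the record puts the active cut at -80%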
Target sequence (Q9GZU1 whole entry, looked up): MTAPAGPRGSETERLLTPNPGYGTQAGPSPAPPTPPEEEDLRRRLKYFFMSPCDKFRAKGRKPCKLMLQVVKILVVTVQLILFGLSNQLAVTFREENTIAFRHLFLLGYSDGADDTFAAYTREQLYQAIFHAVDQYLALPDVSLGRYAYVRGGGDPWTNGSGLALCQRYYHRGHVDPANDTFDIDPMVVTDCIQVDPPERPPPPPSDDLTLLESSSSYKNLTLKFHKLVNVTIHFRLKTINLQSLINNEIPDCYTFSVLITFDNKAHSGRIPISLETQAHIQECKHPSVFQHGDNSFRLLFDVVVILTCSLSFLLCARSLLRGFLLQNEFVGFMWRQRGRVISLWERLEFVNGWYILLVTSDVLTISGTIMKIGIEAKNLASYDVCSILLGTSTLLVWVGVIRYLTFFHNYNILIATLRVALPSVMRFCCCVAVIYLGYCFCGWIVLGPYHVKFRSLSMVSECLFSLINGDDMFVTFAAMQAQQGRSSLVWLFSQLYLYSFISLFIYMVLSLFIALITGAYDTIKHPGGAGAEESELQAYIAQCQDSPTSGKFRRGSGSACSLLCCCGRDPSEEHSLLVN
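TRPML1-DL cells, Tet-induced overnight (~16 h, 37 °C) at 1,500 cells/well, were loaded with Ca8 no-wash dye plus quencher for 45-90 min at room temperature. Compounds were pinned during FDSS kinetic reading; agonist 54-4 at EC80 (4 uM final) then added.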
gsp antagonist: antagonists of gsp mutant (McCune-Albright syndrome); gsp-mutant cells, cAMP HTRF, 30 min; control for the full effect not named in the record; Potency, µM (titrated, usually from 76.9 µM), for inactives: at the highest dose activity change, negative = inhibition, actives largely listed as inhibitors; hit rate 0.4% among 340,000; active = falling curve of any shape with a large fitted effect; inconclusive = falling curve, mostly with a smaller effect; inactive = flat or rising curve; cell line not stated here;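 also: intracellular cAMP measured with PDE inhibitor Ro 20-1724 present during compound exposure; potency is read from the fitted curve at half-maximal effect; % is scaled to controls: 0 for no effect and ±100 for the full control effect; nearly all actives have a fitted effect of over 65% in size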
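Cells in G418 medium, seeded 16-24 h, 37C; buffer exchange to DPBS + 1 mM CaCl2, 0.5 mM MgCl2, 0.05% BSA; cpds in DMSO + […] (300 uM stock), 30 min 37C; HTRF cAMP detection.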
gsp ag: agonists of gsp mutant (McCune-Albright syndrome). Potency, µM (doses to about 76.9 µM), without a hit: top-dose activation (cAMP increase), usual class: activators. gsp mutant cells, cAMP HTRF, 30 min; control for the full effect not named in the record. AID 624287. hit rate 0.13% among 340,000; active = well fitted activation curve with a large enough effect; inconclusive = small, poorly fitted or top-dose-only effect, or another doubt; inactive = no such curve, though single readings can be large or run the other way; cell line not stated here;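 also: phosphodiesterase inhibitor Ro 20-1724 added with compounds to block cAMP breakdown; potency is read from the fitted curve at half-maximal effect; nearly all actives have a fitted effect of over 60% in size; about a fifth of the inactives were tested at one dose only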
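Cells stably selected in G418 were plated at 2000/well, grown 16-24 hr, then given compounds in DMSO with the PDE inhibitor […] (300 uM solution added) for 30 min at 37C; cAMP was read by HTRF.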
TRPV1 potentiator: enhances activation of the human vanilloid receptor TRPV1; Q8NER1; TRPV1-expressing cells, Fluo-8 calcium influx, capsaicin EC20 potentiation; host cell line not named in the record; control for the full effect not named in the record; potentiation, % at 8.33 µM; hit rate 0.02% among 320,000; AID 540277; active means potentiation above 80%; inconclusive means 30% to 80%; inactive means below 30%; also: 0% is about no effect
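Cells expressing TRPV1 were dye-loaded with Fluo-8 and read kinetically: 10 s baseline, 3 min after compound (agonist portion), then 2 min after EC20 capsaicin (allosteric enhancer portion). Calcium-bound dye fluorescence at 480/520 nm.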
* = called active by the depositor; u = inconclusive; x = no result given; [ ] = remark or other dose.

SMILES	ClpP mod	Sfp inh	Menin MLL FP FL	TRPML1 blocker	gsp antagonist	gsp ag	TRPV1 potentiator
Cc1ccc(Cn2ncc3c(N4CCN(c5ccc(C)cc5)CC4)ncnc32)cc1	41.5%	5.4%	1.2	-9.6	-18.4%	20.6%	5.5
CCOC(=O)/C(C#N)=C1/C=C(C)NC(c2ccccc2O)=N1	-17.6%	-2.5%	1.7	-4.8	u	u	10.5
COc1ccc(CNC(=O)C(c2ccccc2F)N(C(=O)c2csnn2)C2CC2)cc1 (stereo not given)	x	5.7%	-0.9	10.0	-2.8%	-27.5%	-2.9
COc1cccc(CN(C)CC(=O)NC(=O)NCc2ccccc2)c1	-1.5%	-14.4%	4.9	9.5	21.1%	13.0%	-13.3
CC(C)(C)C1CCC(CN2CCC(CN3C(=O)C(=O)NC[C@@H]3Cc3ccccc3)CC2)CC1 (stereo not given in full)	-0.6%	x	x	-8.7	9.2%	x	x
CCNc1nc(NCC)n2c(SCC(=O)c3ccccc3Cl)nnc2n1	x	12.3%	1.6	-0.7	-13.9%	1.7%	2.7
C/C(=N\NC(=O)c1ccccc1F)c1ccccn1	0.5%	u	1.5	-4.4	2.2%	u	-0.9
CC(C)(C)NC(=O)CSc1nnc(-c2ccccn2)n1-c1ccccc1	0.3%	12.2%	4.3	6.0	4.2%	-47.5%[inhibitor]	20.1
O=S(=O)(/C=C/c1ccccc1)NCCc1ccccn1	-0.8%	7.7%	-1.6	-6.2	12.1%	5.6%	0.0
Cc1cc2oc(=O)cc(CN3CCCCC3C)c2cc1C(C)C (stereo not given)	x	-10.6%	7.0	-1.2	u	-7.2%[15.4 µM]	-3.5
Nc1ccc(S(=O)(=O)N2CCCC2C(=O)O)cc1 (stereo not given)	-0.3%	79.4µM*	1.0	-2.8	10.8%	10.1%	14.9
Cc1ccc(NC(=O)Cc2nc(CCl)cs2)cc1	1.0%	-12.4%	8.2	-7.7	8.1%	u	-13.6
CC(NC(=O)CN1CCN(Cc2cccc(F)c2)CC1)c1ccccc1 (stereo not given)	-0.1%	3.7%	-2.8	-1.0	2.5%	-4.0%[15.4 µM]	-18.9
Fc1cccc(Cl)c1-c1nnc2ccc(C(F)(F)F)cn12	x	15.2%	-4.0	-8.5	-5.0%	24.2%	2.0
Cc1ccc(-c2nc3ccccc3c(=O)o2)cc1	-4.5%	3.7%	-0.9	7.0	-8.5%	-8.4%	3.1
Cc1cc(N/N=C/c2ccccc2)nc(NCc2ccccc2)n1	-0.5%	u	1.2	18.6	-8.9%	u	-6.8
Fc1ccc(-c2ccc(CNCc3ccccn3)o2)cc1Cl	x	-5.0%	-2.2	-8.2	8.8%	-1.3%	-1.3
O=C(O)c1cc(NC(=O)c2cccc(C(=O)Nc3cc(C(=O)O)cc(C(=O)O)c3)c2)cc(C(=O)O)c1	0.3%	23.5%	0.5	7.9	19.2%	-12.1%	-2.3
CC(C)[C@H](NC(=O)c1ccccc1)C(=O)OCC(=O)N1CCc2ccccc2C1	1.4%	-22.6%	3.0	5.1	-11.2%	-17.0%	-0.7
CNC(=O)c1[nH]cnc1C(=O)Nc1cccc(OC)c1	-0.7%	-23.8%	2.8	-6.1	7.5%	-28.7%	5.1
CSc1nc(Cl)cc(N(CCO)CCO)n1	5.6%	24.7%	4.5	-8.0	12.2%	u	-5.4
CCCC(=O)NC(c1ccc(N(C)C)cc1)c1ccc2cccnc2c1O (stereo not given)	x	18.0%	0.8	-6.3	-13.0%	u	-12.2
COc1cc(SC)ccc1C(=O)N(C)Cc1ccccc1	-2.5%	17.9%	0.2	41.8	2.8%	-27.3%	-15.2
O=C(Cn1cnc(S(=O)(=O)N2CCCCC2)c1)NCc1ccco1	-0.3%	22.8%	x	-6.4	6.1%	-3.2%	4.9

Part of the list above, bar-delimited.
Structure | ClpP mod | Sfp inh | Menin MLL FP FL | TRPML1 blocker | gsp antagonist | gsp ag | TRPV1 potentiator
Cc1ccc(Cn2ncc3c(N4CCN(c5ccc(C)cc5)CC4)ncnc32)cc1 | 41.5% | 5.4% | 1.2 | -9.6 | -18.4% | 20.6% | 5.5
CCOC(=O)/C(C#N)=C1/C=C(C)NC(c2ccccc2O)=N1 | -17.6% | -2.5% | 1.7 | -4.8 | u | u | 10.5
COc1ccc(CNC(=O)C(c2ccccc2F)N(C(=O)c2csnn2)C2CC2)cc1 (stereo not given) | x | 5.7% | -0.9 | 10.0 | -2.8% | -27.5% | -2.9
COc1cccc(CN(C)CC(=O)NC(=O)NCc2ccccc2)c1 | -1.5% | -14.4% | 4.9 | 9.5 | 21.1% | 13.0% | -13.3
CC(C)(C)C1CCC(CN2CCC(CN3C(=O)C(=O)NC[C@@H]3Cc3ccccc3)CC2)CC1 (stereo not given in full) | -0.6% | x | x | -8.7 | 9.2% | x | x
CCNc1nc(NCC)n2c(SCC(=O)c3ccccc3Cl)nnc2n1 | x | 12.3% | 1.6 | -0.7 | -13.9% | 1.7% | 2.7
C/C(=N\NC(=O)c1ccccc1F)c1ccccn1 | 0.5% | u | 1.5 | -4.4 | 2.2% | u | -0.9
CC(C)(C)NC(=O)CSc1nnc(-c2ccccn2)n1-c1ccccc1 | 0.3% | 12.2% | 4.3 | 6.0 | 4.2% | -47.5%[inhibitor] | 20.1
O=S(=O)(/C=C/c1ccccc1)NCCc1ccccn1 | -0.8% | 7.7% | -1.6 | -6.2 | 12.1% | 5.6% | 0.0
Cc1cc2oc(=O)cc(CN3CCCCC3C)c2cc1C(C)C (stereo not given) | x | -10.6% | 7.0 | -1.2 | u | -7.2%[15.4 µM] | -3.5
Nc1ccc(S(=O)(=O)N2CCCC2C(=O)O)cc1 (stereo not given) | -0.3% | 79.4µM* | 1.0 | -2.8 | 10.8% | 10.1% | 14.9
Cc1ccc(NC(=O)Cc2nc(CCl)cs2)cc1 | 1.0% | -12.4% | 8.2 | -7.7 | 8.1% | u | -13.6
CC(NC(=O)CN1CCN(Cc2cccc(F)c2)CC1)c1ccccc1 (stereo not given) | -0.1% | 3.7% | -2.8 | -1.0 | 2.5% | -4.0%[15.4 µM] | -18.9

Other structures:
SMILES	ClpP mod	Sfp inh	Menin MLL FP FL	TRPML1 blocker	gsp antagonist	gsp ag	TRPV1 potentiator
Cc1sc2ncn(CC(=O)NCCCC(=O)N(C)Cc3ccccc3)c(=O)c2c1C	-0.2%	13.5%	-0.4	3.4	3.7%	6.5%[15.4 µM]	17.8
COc1ccccc1N1CCN(CC(=O)N2N=CCC2c2ccccc2)CC1 (stereo not given)	-2.0%	9.7%	4.3	-8.6	-0.6%	-17.2%	6.0
c1cc(Nc2ncnc3sccc23)cc(-c2nnc3n2CCCCC3)c1	-5.1%	7.9%	5.2	7.1	8.8%	u	6.1
Cc1ccc(C(=O)Nc2ccon2)cc1S(=O)(=O)N1CCCC1	0.7%	16.5%	-4.4	1.8	-2.5%	-32.7%[inhibitor]	-1.7
COc1ccc(Cl)cc1NC(=S)Nc1ccc(Cl)cn1	1.8%	6.6%	-4.6	12.7	4.7%	-39.4%[inhibitor]	9.2
O=C(CC1C(=O)NCCN1Cc1ccc(-c2ccccc2)cc1)NCCCn1cccn1 (stereo not given)	-6.8%	1.1%	-7.6	-15.3	-0.8%	2.3%	8.9
Oc1ccc(/C=N/NC(=S)Nc2cccnc2)cc1O	-0.2%	-14.0%	7.2	8.4	-13.2%	15.6%[15.4 µM]	u
CC(C)CNC(=O)c1cccc2c1-c1ccccc1C2=O	x	4.2%	-3.7	-11.4	3.3%	22.2%	1.2
Cc1ccc(-c2ccc(/C=N/NC(=O)CN3CCCC3)o2)cc1Cl	-5.8%	-5.7%	1.7	3.5	9.0%	-46.7%[inhibitor]	2.3
CCOC(=O)C1CCCN(C2CC(=O)N(c3ccccc3)C2=O)C1 (stereo not given)	0.6%	1.2%	-6.2	13.1	-8.1%	16.0%	1.9
Cc1cc(C)n2nc(SCN3C(=O)c4ccccc4C3=O)nc2n1	-0.5%	-4.6%	4.9	33.9	-1.9%	-3.7%	-11.5
